Bioassay records (PubChem)
TRPV1 PAM = HTS Assay for Compounds that Act as Potentiators of the Vanilloid Receptor 1; 320,000 tested, 0.02% active; TRPV1-expressing cells, Fluo-8 calcium influx, capsaicin EC20 potentiation; host cell line not named in the record; control for the full effect not named in the record; AID 540277, 2011; potentiation, % at 8.33 µM; active means potentiation above 80%; inconclusive means 30% to 80%; inactive means below 30%; note: 0% is about no effect
Target sequence (Q8NER1 whole entry, looked up): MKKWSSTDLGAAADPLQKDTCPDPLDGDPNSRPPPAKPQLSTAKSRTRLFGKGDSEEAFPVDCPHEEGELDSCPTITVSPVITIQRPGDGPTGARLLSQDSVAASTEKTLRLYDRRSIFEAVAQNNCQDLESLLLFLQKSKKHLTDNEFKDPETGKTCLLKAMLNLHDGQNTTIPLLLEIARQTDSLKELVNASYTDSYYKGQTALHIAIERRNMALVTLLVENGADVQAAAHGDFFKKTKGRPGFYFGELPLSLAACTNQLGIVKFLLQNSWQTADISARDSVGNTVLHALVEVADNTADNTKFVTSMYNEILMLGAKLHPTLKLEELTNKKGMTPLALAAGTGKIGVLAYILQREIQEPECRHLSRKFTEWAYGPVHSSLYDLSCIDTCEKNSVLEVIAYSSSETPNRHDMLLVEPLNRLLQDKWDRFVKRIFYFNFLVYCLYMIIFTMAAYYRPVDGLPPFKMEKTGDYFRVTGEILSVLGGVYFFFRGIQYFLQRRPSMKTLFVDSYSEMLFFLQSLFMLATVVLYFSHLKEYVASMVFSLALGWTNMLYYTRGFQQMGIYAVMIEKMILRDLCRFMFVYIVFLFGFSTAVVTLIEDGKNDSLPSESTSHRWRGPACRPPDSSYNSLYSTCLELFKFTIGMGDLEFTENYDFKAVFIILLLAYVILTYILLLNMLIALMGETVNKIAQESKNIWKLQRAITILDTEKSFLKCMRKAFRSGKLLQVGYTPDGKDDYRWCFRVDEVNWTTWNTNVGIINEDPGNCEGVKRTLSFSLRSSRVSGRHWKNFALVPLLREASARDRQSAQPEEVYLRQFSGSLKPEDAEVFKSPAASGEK
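Fluo-8 calcium influx in TRPV1-expressing cells, kinetic read (ex 480/em 520 nm). Compound added and read 3 min for agonist activity, followed by capsaicin at EC20 final and 2 min further read for enhancement.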
gsp antagonist = qHTS for Antagonists of gsp, the Etiologic Mutation Responsible for Fibrous Dysplasia/McCune-Albright Syndrome: qHTS | gsp-mutant cells, cAMP HTRF, 30 min; control for the full effect not named in the record | AID 624288, 2012 | Potency, µM (titrated, usually from 76.9 µM), inactives show at the top dose activity change, negative = inhibition, hits mostly inhibitors | 340,000 tested, 0.4% active; active = falling curve of any shape with a large fitted effect; inconclusive = falling curve, mostly with a smaller effect; inactive = flat or rising curve; cell line not stated here;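 note: intracellular cAMP measured with PDE inhibitor Ro 20-1724 present during compound exposure; potency is the fitted concentration of half-maximal effect; % is set by controls: 0 for no effect and ±100 for the full control effect; nearly all actives have a fitted effect of over 65% in size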
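G418-selected cells were plated in DMEM/10% FBS for 16-24 h at 37C, then treated with compounds plus the PDE inhibitor […] (300 uM solution added) for 30 min at 37C. Intracellular cAMP was measured by HTRF after 30 min lysis at room temperature.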
D2 PAM = Beta-Arrestin HTS for Positive Allosteric Modulators of the Human D2 Dopamine Receptor: Potentiators. D(2) dopamine receptor (Homo sapiens), P14416. potentiation, % (test concentration not listed). DiscoveRx D2 beta-arrestin cells, luminescence, 90 min; 100% = 57 uM dopamine signal. 360,000 tested, 0.23% active. AID 624464, 2012; active = potentiation of 50% or more; inconclusive = 30% to 50%; inactive = 30% or less;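 note: compound concentration not given in the record; tested on top of an EC20 dose of dopamine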
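PathHunter beta-arrestin assay in DiscoveRx D2 cells. Compounds were added with an EC20 of dopamine (50 nM final) for 90 min at 37 deg C. Luminescence was read 1 h after detection reagent, with 57 uM dopamine as the EC100 control.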
ClpP mod = qHTS Assay for Activators of ClpP. purified B. subtilis ClpP, FRET peptide cleavage, 20 min. Potency, µM (doses to about 57.5 µM), without a hit: top-dose activity change, negative = active. 340,000 tested, 1.9% active. AID 651965, 2013. ATP-dependent Clp protease proteolytic subunit (Bacillus subtilis (strain 168)), P80244; active = well fitted falling curve with a large enough effect; inconclusive = small, poorly fitted or top-dose-only effect; inactive = no such curve, though single readings can be large or run the other way; note: potency is the fitted concentration of half-maximal effect; the source files actives as falling curves though it sought activators and does not explain the sign; nearly all actives have a fitted effect of over 65% in size; many hits overshoot -100%
Target sequence (P80244 whole entry, looked up): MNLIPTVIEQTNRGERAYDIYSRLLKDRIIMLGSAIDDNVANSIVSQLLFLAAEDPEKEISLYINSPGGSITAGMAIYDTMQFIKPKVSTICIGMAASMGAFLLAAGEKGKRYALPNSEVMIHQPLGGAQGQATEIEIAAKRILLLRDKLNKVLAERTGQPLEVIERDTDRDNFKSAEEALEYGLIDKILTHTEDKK
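FRET quenching reversal measured ClpP activation: 10 microg/mL B. subtilis ClpP at pH 8 with the FRET-FV decapeptide, read at 430 nm after 320 nm excitation. The 20-min minus 0-min signal was scaled between DMSO/no-enzyme wells and ADEP (5.8 microM final).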
gsp ag = qHTS for Agonist of gsp, the Etiologic Mutation Responsible for Fibrous Dysplasia/McCune-Albright Syndrome: qHTS; 340,000 tested, 0.13% active; AID 624287, 2012; Potency, µM (top dose mostly 76.9 µM), inactives show at the highest dose activation (cAMP increase), hits mostly activators; gsp mutant cells, cAMP HTRF, 30 min; control for the full effect not named in the record; active = well fitted activation curve with a large enough effect; inconclusive = small, poorly fitted or top-dose-only effect, or another doubt; inactive = no such curve, though single readings can be large or run the other way; cell line not stated here;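 note: phosphodiesterase inhibitor Ro 20-1724 added with compounds to block cAMP breakdown; potency is the fitted concentration of half-maximal effect; nearly all actives have a fitted effect of over 60% in size; about a fifth of the inactives were tested at one dose only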
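Cells stably selected in G418 were plated at 2000/well, grown 16-24 hr, then given compounds in DMSO with the PDE inhibitor […] (300 uM solution added) for 30 min at 37C; cAMP was read by HTRF.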
Menin-MLL FL inh = qHTS Assay for Inhibitors Targeting the Menin-MLL Interaction in MLL Related Leukemias: Competition With Fluorescein Labeled MLL-derived Peptide. FP activity change, % at 61.4 µM. 290,000 tested, under 10 active. Fluorescence polarization, fluorescein-MLL peptide displacement from menin. AID 1766, 2009; inconclusive = falling polarisation curve, or a change in total fluorescence; inactive = total fluorescence flat and polarisation flat or rising; no compound was filed as active; the % refers to the polarisation; negative = inhibition;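 note: % of control where 0% means no effect; inhibitors lower the polarisation; unlabelled MLL peptide was the positive control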
Sfp inh = qHTS Assay for Inhibitors of Bacillus subtilis Sfp phosphopantetheinyl transferase (PPTase) | 4'-phosphopantetheinyl transferase ffp (Bacillus subtilis), Q9F4F7 | Biochemical Sfp PPTase activity, qHTS | Potency, µM, for inactives: max response, negative = inhibition, actives largely listed as inhibitors | 310,000 tested, 3.5% active | AID 1490, 2009; active = well fitted inhibition curve with a large enough effect; inconclusive = small, poorly fitted or top-dose-only effect, or another doubt; inactive = no such curve, though single readings can be large or run the other way;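 note: the enzyme is Sfp with the accession as filed and its product quenches rhodamine fluorescence; potency is the fitted concentration of half-maximal effect; 0% = enzyme reaction without inhibitor and -100% = no enzyme wells; top concentration of the series not given in the record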
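Reaction rates are the 30-min fluorescence difference (ex 525, em 598 nm) in wells containing 15 nM Sfp, 5 uM rhodamine-CoA and 12.5 uM BHQ-2-YbbR at pH 7.6 with 10 mM MgCl2.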
The depositor's hits bear a star; u = inconclusive; x = not tested or not shown; [ ] = dose if it differs, or a comment.

SMILES | TRPV1 PAM | gsp antagonist | D2 PAM | ClpP mod | gsp ag | Menin-MLL FL inh | Sfp inh
Cc1ccc(C2(C)NC(=O)N(CC(=O)Nc3cccnc3Cl)C2=O)cc1 (stereo unspecified) | -1 | 1% | -4 | x | u | u | 12%
CC(C)(C)c1ccc(C(=O)CC(Sc2ccc(Cl)cc2)C(=O)O)cc1 (stereo unspecified) | 8 | -31% | -3 | x | -23% | -3.4 | 20µM*
COc1ccc(C2CC(C(F)(F)F)n3nc(C(N)=O)c(Cl)c3N2)cc1OC (stereo unspecified) | 4 | -8% | 3 | -2.5% | -12% | 2.5 | 16%
Cc1sc2nc(CN3CCCC3)nc(N3CCN(S(=O)(=O)c4cccc(F)c4)CC3)c2c1C | -7 | -18% | -9 | -11% | u | x | x
C[C@H](CO)N1C[C@H](C)[C@@H](CN(C)S(=O)(=O)c2ccccc2)Oc2c(NC(=O)Cc3ccccc3)cccc2C1=O | x | -9% | -3 | 1.0% | x | x | x
O=C(COC(=O)[C@@H]1CCCN1S(=O)(=O)c1ccc(Cl)cc1)NC12CC3CC(CC(C3)C1)C2 | 6 | -11% | -6 | -0.3% | 1% | 0.6 | 9%
CCOC(=O)CN(Cc1ccc(OC)c(OC)c1)S(=O)(=O)c1ccc(OC)cc1 | 0 | -4% | 19 | 0.4% | -52%[inhibitor] | 1.6 | 8%
CCOC(=O)C(C(=O)Nc1cccc(C)n1)C1CCCCC1 (stereo unspecified) | x | -4% | 9 | -1.1% | -1% | -2.0 | 10%
CC(C)CC(NC(=O)C(Cc1ccc(OCc2ccccc2)cc1)NC(=O)OC(C)(C)C)C(N)=O (stereo unspecified) | 6 | 3% | -2 | 0.9% | 10% | 1.1 | -1%
Cc1c(F)cccc1NS(=O)(=O)c1ccccc1C#N | 2 | -20% | 3 | -0.4% | u | 4.0 | -1%
Cc1cc(C)nc(N/C(=N/S(=O)(=O)Cc2ccccc2)Nc2ccccc2)n1 | -10 | 5% | -4 | x | -26% | 0.0 | 15%
CN(C)c1ccc(/C=N/NC(=O)c2ccc(Cl)cc2)cc1 | -11 | 1% | -10 | -8.9% | -3% | -3.1 | 4%
COc1ccc(C)cc1S(=O)(=O)Nc1cc2c3c(c1)CC(=O)N3CCC2 | -5 | -2% | -4 | 2.0% | 3%[15.4 µM] | x | x
c1ccc(-c2ccc3ccccc3n2)cc1 | x | -1% | -4 | 0.0% | -3% | x | x
COc1ccccc1CN(C)C(=O)c1cccc(S(=O)(=O)N2CCCC2)c1 | -5 | 2% | 1 | -0.1% | 1% | x | x
NC(=O)SCC(=O)Nc1ccc(Cl)cc1 | 12 | 5% | -4 | 0.5% | -37%[inhibitor] | 5.7 | -24%
Cc1cc(S(=O)(=O)NCCc2ccncc2)cc(C)c1F | x | 12% | -9 | 0.0% | 57%[15.4 µM] | x | x
COc1ccc(OCC(=O)N/N=C(\C)c2ccc(-n3ccnc3)cc2)cc1 | 4 | 16% | -21 | 0.4% | u | 1.9 | -9%
CC[C@]12C(=O)N(C)C[C@H]([C@@H]3C(=O)N(Cc4ccccc4)C(=O)[C@@H]31)N2C(=O)c1ccc(C(F)(F)F)cc1 | x | -1% | -3 | 0.2% | x | x | x
CC1(C)Cc2ccccc2-c2nnc(SCC(=O)Nc3nc4ccccc4s3)n21 | 6 | -8% | 1 | 5.1% | 23% | 2.8 | -2%

The final 3 entries of the section before open the next one:
SMILES | TRPV1 PAM | gsp antagonist | D2 PAM | ClpP mod | gsp ag | Menin-MLL FL inh | Sfp inh
COc1ccc(OCC(=O)N/N=C(\C)c2ccc(-n3ccnc3)cc2)cc1 | 4 | 16% | -21 | 0.4% | u | 1.9 | -9%
CC[C@]12C(=O)N(C)C[C@H]([C@@H]3C(=O)N(Cc4ccccc4)C(=O)[C@@H]31)N2C(=O)c1ccc(C(F)(F)F)cc1 | x | -1% | -3 | 0.2% | x | x | x
CC1(C)Cc2ccccc2-c2nnc(SCC(=O)Nc3nc4ccccc4s3)n21 | 6 | -8% | 1 | 5.1% | 23% | 2.8 | -2%
COc1ccc(CCNC(=O)CSc2nnc(-c3ccc(F)cc3)o2)cc1OC | 4 | -1% | -14 | 0.4% | -59%[inhibitor] | 0.7 | 22%
Cc1ccc(NC(=O)c2cnn(-c3ccccc3)c2C)c(C)c1 | 14 | 3% | 10 | -2.0% | -1%[15.4 µM] | -3.2 | 5%
C=CCOCCn1[nH]c2ccccc2c1=O | u | 3% | 10 | 3.7% | -14% | x | x
CCOC(=O)c1cc(NC(=O)Cc2ccc(S(=O)(=O)N3CCOCC3)s2)cc(C(=O)OCC)c1 | 7 | -8% | u | -0.8% | -26% | x | x
Cc1c(C(=O)O)sc(S(=O)(=O)N2CCN(C(=O)Cc3ccccc3)CC2)c1C(=O)O | 1 | 11% | 0 | x | 6%[15.4 µM] | x | x
Oc1c(Br)cc(Br)cc1C=Nc1ccc2c(c1)OCCO2 | 2 | u | -2 | 2.1% | -14% | u | -17%
COc1ccc(C)cc1S(=O)(=O)N1c2ccccc2CC1C (stereo unspecified) | 7 | -28% | 7 | -0.5% | -3% | 5.8 | -3%
COC(=O)CSc1nc(N)c(C#N)c(C(C)C)c1C#N | 0 | 2% | -16 | -24% | 13% | 2.6 | -3%
Cc1nc2sc3c(c2c(=O)[nH]1)CCCCC3 | -16 | 10% | -2 | x | -5%[15.4 µM] | -0.7 | 6%
COc1cccc(/C=C(\C#N)c2nc3ccc(C)cc3[nH]2)c1OCC(=O)O | -1 | -7% | -4 | -6.5% | 11% | 0.0 | 18%
N#Cc1cc2cc3c(cc2nc1Cl)OCCO3 | x | x | -2 | -15% | u | x | x
COc1ccc(CCN2C(=O)CC(N3CCOCC3)C2=O)cc1OC (stereo unspecified) | 4 | 7% | -15 | -11% | 0% | 4.6 | 6%
N#Cc1ccc(OCC(=O)OCC(=O)c2ccccc2)cc1 | x | 2% | -13 | -3.4% | -3%[15.4 µM] | x | x
CN(C)c1ccc(CNc2ncc(Br)cc2Br)cc1 | -10 | -8% | -22 | 0.1% | -10% | 2.8 | -7%
COC(=O)c1cc(NC(=O)COC(=O)C2CCC2)cc(C(=O)OC)c1 | 0 | 5% | -20 | -1.3% | -10% | x | x
C=CC[C@@H](Cc1ccc(F)cc1)C(=O)OC[C@@H]1CCCN1C(=O)[C@H](CC=C)CC(=O)NCCO | x | 9% | 3 | 0.4% | 26% | x | x
Cc1c[n+]([O-])cc(C)c1[N+](=O)[O-] | x | -3% | -5 | x | -26% | x | x
CCN(CC)C(=O)C1=C(C)N(CCC2=CCCCC2)C(=O)C(CC(=O)NCC2CCCCC2)C1 (stereo unspecified) | x | x | 1 | 0.2% | -63%[inhibitor] | x | x
O=C(CSc1nc2ccccc2n1Cc1ccccc1Cl)N/N=C/c1ccccc1C(=O)O | 8 | -8% | -10 | -0.2% | -11% | 2.8 | u
NC(=O)c1ccc(NC(=O)COC(=O)CC(NC(=O)c2ccccc2Cl)c2ccccc2)cc1 (stereo unspecified) | 13 | -7% | 6 | x | 25% | 2.7 | 11%

Five compounds drawn at random from those above:
SMILES | TRPV1 PAM | gsp antagonist | D2 PAM | ClpP mod | gsp ag | Menin-MLL FL inh | Sfp inh
COc1ccc(CCN2C(=O)CC(N3CCOCC3)C2=O)cc1OC (stereo unspecified) | 4 | 7% | -15 | -11% | 0% | 4.6 | 6%
N#Cc1ccc(OCC(=O)OCC(=O)c2ccccc2)cc1 | x | 2% | -13 | -3.4% | -3%[15.4 µM] | x | x
Cc1ccc(NC(=O)c2cnn(-c3ccccc3)c2C)c(C)c1 | 14 | 3% | 10 | -2.0% | -1%[15.4 µM] | -3.2 | 5%
COc1ccc(CCNC(=O)CSc2nnc(-c3ccc(F)cc3)o2)cc1OC | 4 | -1% | -14 | 0.4% | -59%[inhibitor] | 0.7 | 22%
Cc1nc2sc3c(c2c(=O)[nH]1)CCCCC3 | -16 | 10% | -2 | x | -5%[15.4 µM] | -0.7 | 6%

More results.
SMILES | TRPV1 PAM | gsp antagonist | D2 PAM | ClpP mod | gsp ag | Menin-MLL FL inh | Sfp inh
O=C(CCC1CCCC1)N1CCN(C(=O)COc2ccccc2)CC1 | -28 | -2% | 15 | 17% | -9% | 5.0 | -4%
CCCCn1c(N)c(N(CC)C(=O)C2CCN(C(=O)c3ccccc3C)CC2)c(=O)[nH]c1=O | -3 | 16% | -4 | 0.8% | 10% | x | x
Cc1ccc(C(=O)N2CCC(C(=O)c3ccc(Cl)cc3)CC2)cc1 | -9 | -30% | -13 | 1.3% | -10% | -0.2 | 1%
CCN1CCn2c3c(c4cccc(C)c42)CCCC31 (stereo unspecified) | 2 | 8% | -4 | -1.0% | 7%[15.4 µM] | -1.1 | -5%
NS(=O)(=O)c1ccc(CNC(=O)CNC(=O)Cc2ccccc2)cc1 | 28 | 6% | -8 | -1.3% | 20%[15.4 µM] | -0.9 | 14%
CCOC(=O)C(=O)N1CCN(c2ccccc2OC)CC1 | 12 | -9% | -4 | -0.1% | 9%[15.4 µM] | -2.9 | 16%
Cc1cccc(/C=N/NC(=O)c2ccccc2OCc2cccc(Br)c2)n1 | -1 | -26% | 0 | x | 5% | -2.4 | -1%
COc1ccc(-c2ccc(C#N)c(SCC(=O)NC3CC3)n2)cc1OC | 8 | 4% | -19 | 3.9% | u | 1.0 | u
COc1ccc(C(=O)C2CCCN(C(=O)c3ccoc3C)C2)cc1F (stereo unspecified) | 10 | -5% | -3 | x | 22%[15.4 µM] | 6.3 | -12%
CN(C)S(=O)(=O)c1ccc(N2CCCC2)c(C(=O)Nc2ccc(F)cc2F)c1 | -12 | -2% | -8 | -3.0% | u | x | x
Cc1ccc(C(=O)O)c(NC=O)c1OCc1ccccc1 | x | 3% | 1 | x | -43%[inhibitor] | x | x
